# Screening data as filed in PubChem BioAssay.
# MbtI inh – inhibitors of Mycobacterium tuberculosis siderophore enzyme MbtI. P9WFX0. inhibition, %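 (about 17 µg/mL by stock and volumes)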. purified MbtI enzyme, fluorescence intensity read-out. hit rate 0.89% among 100,000. AID 493033;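 active = above 50% in both replicates, above 80% if mildly self-fluorescent; inactive = the rest, strongly fluorescent compounds included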;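 also: 0% = mean of negative and 100% = mean of positive controls; one replicate is shown; some compounds called inactive have numbers as strong as hits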
# PV pol inh – poliovirus RNA polymerase inhibition; P03300; poliovirus polymerase elongation, fluorescence polarization; hits give low values; % elongation, % (compound at 16.7 µg/mL); hit rate 0.66% among 150,000; in the data active = % elongation below about 90%; also: some results filed as inactive read as strong as hits
# Target sequence (P03300 1749-2209 limits assumed): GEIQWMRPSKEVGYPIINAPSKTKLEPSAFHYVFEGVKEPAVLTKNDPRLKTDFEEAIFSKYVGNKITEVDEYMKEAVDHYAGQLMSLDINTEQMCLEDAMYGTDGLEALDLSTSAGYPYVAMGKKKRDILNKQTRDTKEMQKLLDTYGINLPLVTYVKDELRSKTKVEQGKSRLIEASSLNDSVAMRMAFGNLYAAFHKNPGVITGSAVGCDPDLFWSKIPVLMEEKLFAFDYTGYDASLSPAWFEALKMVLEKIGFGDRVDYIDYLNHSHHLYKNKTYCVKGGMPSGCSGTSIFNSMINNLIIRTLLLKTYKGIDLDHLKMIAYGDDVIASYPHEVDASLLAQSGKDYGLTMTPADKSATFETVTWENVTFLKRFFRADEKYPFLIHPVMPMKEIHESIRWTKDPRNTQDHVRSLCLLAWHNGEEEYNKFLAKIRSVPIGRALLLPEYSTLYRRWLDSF
# MenB inh – Mtb MenB enzyme inhibition. P9WNP5. MenB enzyme assay, absorbance read-out; some hits fall short of the stated cut. inhibition, %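 (about 12 µg/mL by stock and volumes)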. hit rate 0.43% among 100,000. AID 540299;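 active = mean of two replicates above 30%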;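 also: 0% = no compound and 100% = wells with inactive enzyme; the first replicate is given; strong numbers were not always called active; inactives centre near -10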
# Target sequence (P9WNP5 whole entry, looked up): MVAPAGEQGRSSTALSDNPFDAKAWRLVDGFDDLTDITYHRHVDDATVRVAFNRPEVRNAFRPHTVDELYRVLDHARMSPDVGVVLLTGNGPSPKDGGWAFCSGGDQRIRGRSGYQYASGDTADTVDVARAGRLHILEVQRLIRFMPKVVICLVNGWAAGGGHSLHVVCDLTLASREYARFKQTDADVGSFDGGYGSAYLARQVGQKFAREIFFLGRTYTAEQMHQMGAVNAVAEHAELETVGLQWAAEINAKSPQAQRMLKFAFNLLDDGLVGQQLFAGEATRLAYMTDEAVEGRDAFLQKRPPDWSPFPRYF
# PV pol inh intensity – also measured in PV pol inh; calls as there; % elongation; measured here: total intensity read-out; formula for this scale not given here;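 total fluorescence in place of polarization; lower means less elongation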
# Active calls of the source: *; i = inactive; x = no result given.
smiles	MbtI inh	PV pol inh	PV pol inh intensity	MenB inh
O=C(/C=C/c1ccco1)NCc1ccccc1	11	100	102	3
CCOC(=O)c1cc(-c2ccc(F)cc2)n(CC(=O)Nc2nnc(SCC)s2)c1C	-19	100	101	-32
Clc1nc(NCCN2CCOCC2)nc(Nc2ccc3c(c2)OCO3)n1	-1	101	102	-6
O=C(O)c1nccnc1-c1nc2ccccc2c(=O)[nH]1	5	102	101	-3
CC(=C(C#N)C#N)c1ccc(Br)cc1	-13	102	99	x
O=C(C1CCCO1)N1CCN(c2ccccn2)CC1 (configuration not stated)	-212	99	101	-19
CC(C)NC(=O)c1cccc(N2CCCS2(=O)=O)c1	9	99	105	3
Cc1ccccc1CSCC(=O)NCc1ccccc1	2	102	105	3
Cc1ccc(NC(=O)Cn2cc3c(n2)CCC(C)C3)c(Cl)c1 (configuration not stated)	-2	99	101	0
O=C(c1cc(S(=O)(=O)N2CCCC2)c(Cl)cc1Cl)N1CCCC1	-11	102	106	x
S=C1NC2=C(CCc3ccccc32)C(c2ccccc2)N1 (configuration not stated)	51	103	98	-30
CC(C)N(Cc1ccccc1)C(=O)c1cc(-c2ccccc2)n[nH]1	3	103	104	-18
O=C(/C=C/c1ccco1)OCc1cccc(C(F)(F)F)c1	-4	106	108	-21
COc1ccc(-c2ccc(C#N)c(SCC#N)n2)cc1OC	i	99	102	-6
C1=CCC(CNCCN2CCOCC2)CC1 (configuration not stated)	-7	105	104	2
COc1cccc(C2C(C#N)=C(N)Oc3c2c(=O)n(C)c(=O)n3C)c1 (configuration not stated)	-20	101	101	-42
CN1C(=O)S/C(=C\c2ccc(N(C)C)cc2)C1=O	4	107	115	-33
Cn1nnnc1SCc1ccccc1	-2	97	104	-25
COc1ccc(CN2CCN(C(=O)COc3ccccc3)CC2)cc1OC	-8	101	100	-7
CCOc1ccc(C(=O)N2CCC(C(=O)OC)CC2)cc1	-6	101	102	-1

# 2 successive records already listed, quoted:
smiles	MbtI inh	PV pol inh	PV pol inh intensity	MenB inh
C1=CCC(CNCCN2CCOCC2)CC1 (configuration not stated)	-7	105	104	2
COc1cccc(C2C(C#N)=C(N)Oc3c2c(=O)n(C)c(=O)n3C)c1 (configuration not stated)	-20	101	101	-42

# New compounds follow:
smiles	MbtI inh	PV pol inh	PV pol inh intensity	MenB inh
COC(=O)C1=[N+]([O-])OC(C(=O)OC)C1c1c[nH]c2ccccc12 (configuration not stated)	-7	100	104	-10
CNC(=S)NCc1ccc(-c2csnn2)cc1	-12	100	113	2
Cc1ccc(OC(=O)COc2ccc3ccccc3c2)cc1	x	99	106	-12
C=CCN(C(=O)Cn1c(=O)n(-c2ccc(C)cc2)c(=O)c2sccc21)c1ccccc1	-5	99	104	5
CC1N=C2c3ccccc3N=C(SCc3ccc(F)cc3)N2C1=O (configuration not stated)	41	100	105	11
O=C(Cn1ncc(Cl)c(Cl)c1=O)N1CCCc2ccccc21	26	93	100	9
Cc1cc(C)c(C2=CSC3=NS(=O)(=O)CCN23)c(C)c1	-12	102	110	3
O=C1CN(C(=O)c2ccc3c4c(cccc24)CC3)c2ccccc2N1	22	103	101	-9
N/C(=N\N=C\c1ccccc1)SC1CC(=O)N(c2ccccc2)C1=O (configuration not stated)	-10	100	104	-44
CSc1ccccc1NC(=O)CSC1=NCCN1	10	105	99	-16
COc1ccc(/C=C2\N=C(SCC(=O)N3CCN(C(=O)c4ccco4)CC3)N(c3cc(C)cc(C)c3)C2=O)cc1	-4	102	109	4
O=c1[nH]c(-c2ccc(S(=O)(=O)N3CCCC3)cc2)nc2sc3c(c12)CCCC3	-13	107	99	-35
N=C1N(c2ccc(Cl)c(Cl)c2)C(=O)NC12CCCC2	-8	108	109	-7
CCn1c(=O)/c(=C2/Sc3ccc(Cl)cc3N2C)s/c1=C1/C(=O)N(C)N=C1C	-14	106	103	-21
CCc1ccc(C(=O)NC(=S)Nc2ccc3[nH]c(=O)[nH]c3c2)cc1	-9	103	102	-19
Cc1scc(CN2CCN(C(=O)c3ccco3)CC2)c1C	-1	104	103	-4
CCSC1=N/C(=C\c2ccc(Br)s2)C(=O)S1	-5	102	94	-30
COc1ccc2c(C)cc(Sc3nnnn3-c3ccccc3)nc2c1	47	102	102	-25
O=C(Cc1ccccc1)Nc1nn2c(COc3ccccc3)nnc2s1	-6	104	100	-35
CCCn1c(SCC(O)c2ccc(OC)cc2)nc2ccccc21 (configuration not stated)	4	101	102	13
Cn1c2c(c(=O)n(C)c1=O)C(c1cccc(Cl)c1)C1C(=O)c3ccccc3C1=N2 (configuration not stated)	8	104	108	-24
O=C(NCc1cccnc1)c1cnn2c1NC(c1ccccc1)CC2C(F)(F)F (configuration not stated)	-1	103	102	-7
CN(C(=S)NCc1ccco1)C(c1ccccc1)c1ccccc1	14	100	111	-26
O=C(c1ccco1)c1cn(CCOc2ccccc2Cl)c2ccccc12	-2	103	107	-1
OCCn1c(SC2CCCCC2)nc2ccccc21	2	100	103	-4
Cc1nc(S(=O)(=O)NCCNc2ccc(-c3ccc(F)cc3)nn2)cn1C	-2	105	110	-11
CC(Oc1ccc2c(-c3ccccc3)cc(=O)oc2c1)C(=O)ON1C(=O)CCC1=O (configuration not stated)	x	106	106	5
Cc1onc(-c2ccccc2)c1C(=O)Nc1ccc2c(C)cc(=O)oc2c1	45	106	98	7
COc1ccc(C)cc1NC(=O)COc1ccccc1F	-11	102	107	x
Cc1cc(NC(=O)c2ccccc2C)n(-c2nc3ccccc3[nH]2)n1	-22	110	108	x
Cc1ccc(NC(=O)C(Cc2c[nH]c3ccccc23)NC(=O)C(c2ccccc2)c2ccccc2)cc1 (configuration not stated)	x	109	110	-22
Cc1nnc(SCC#N)n1-c1ccccc1	-8	103	106	x
Cn1nc(NCc2ccc(Cl)cc2)c(=O)n(C)c1=O	2	103	98	3
O=C(CSc1nc(SCC(=O)c2ccccc2)c2ccccc2n1)c1ccccc1	-6	107	110	11
CC1(C)Cc2ccccc2-c2cc3nc4ccccc4nc3n21	8	102	102	-28
CCc1nc(SC)ncc1C(=O)NCCN1CCN(c2cccc(Cl)c2)CC1	-1	102	102	-6
O=C(Nc1ccc2oc(=O)ccc2c1)c1cccs1	15	103	99	-1
CCCCn1c(SCC(=O)NCc2ccccc2)nc2c(sc3ccccc32)c1=O	10	102	101	0
COc1ccc(CSc2nncn2N)cc1	-7	100	106	6
NNC(=O)C1C2CCCCC21 (configuration not stated)	x	98	104	-13
CCCNc1ccccc1-c1nc2n[nH]nc2c(=O)[nH]1	x	99	103	-4
O=C(CCCCl)Nc1ncnc2c1cnn2-c1ccccc1	7	103	103	x
CC1CC(c2ccccc2)n2nc(N)nc2N1 (configuration not stated)	3	105	104	-42
Cc1csc2ncnc(N3CCN(S(=O)(=O)c4cccc(C(F)(F)F)c4)CC3)c12	-10	102	103	-3
O=C(Oc1ccc2c(c1)OCO2)c1ccncc1	-12	96	102	-6
O=C(Cn1c(=O)c2ccccc2n2nncc12)Nc1ccc(Br)cc1	2	101	96	-15
O=S(=O)(Cc1ccccc1)N1CCN(Cn2c(SC(F)F)nc3ccccc32)CC1	-3	103	106	2
CC(C)(C)C(=O)CNS(=O)(=O)c1ccc(S(=O)(=O)N2CCCC2)cc1	-2	100	104	7
CC(NCc1c(C(=O)O)n(C)c2ccccc12)C12CC3CC(CC(C3)C1)C2 (configuration not stated)	93	102	106	-16
COc1ccc(NC(=O)C(Cc2ccccc2)NS(=O)(=O)c2cccc3cccnc23)cc1 (configuration not stated)	-3	100	105	-7
COc1ccccc1N1CCN(CCCCOc2ccc(F)cc2)CC1	-2	104	103	-15
CCN(c1ccccc1)S(=O)(=O)c1cccc(C(=O)O)c1	-35	103	105	-10
COc1ccc(NC(=S)NCCN(C2CCCCC2)C2CCCC2)cc1	-13	101	105	-2
N#Cc1c(-c2ccccc2)c(-c2ccccc2)n[nH]c1=S	42	105	101	-44
CC(=O)OC1(c2ccccc2)CC(C(C)(C)C)CN(C(C)(C)C)C1 (configuration not stated)	x	107	110	-10
O=C(c1ccc(=O)[nH]c1)N1CCCCCC1	8	100	111	-12
CCn1cnc2c(=O)[nH][nH]c(=O)c21	x	99	102	1
Cc1ccc(NC2(c3nnnn3CCOC(=O)Nc3ccc(Cl)cc3)CCCCC2)cc1	-22	104	106	-27
Cc1cc(/C=N/N2CCN(C)CC2)cc(C)c1O	14	101	100	-5
CCC(CC)c1nc2ccccc2c(=O)[nH]1	-5	101	103	38

# Continuation.
smiles	MbtI inh	PV pol inh	PV pol inh intensity	MenB inh
Fc1ccc(CNCc2ccccc2)cc1	1	103	100	-57
O=C(NCCc1cn2ccccc2n1)c1cccs1	4	105	106	-6
O=C(Nc1ccccn1)c1cccs1	28	100	102	13
O=C(c1ccc(Cl)cc1Cl)n1c(=O)oc2cc(S(=O)(=O)N3CCCCC3)ccc21	x	103	104	-12
CCN1CCN(Cc2ccccc2C#N)CC1	-7	101	102	-14
Cc1cc2c(cc1S(=O)(=O)N1CCc3ccccc3C1)n(C)c(=O)c(=O)n2C	71	102	102	-28
CCc1nn(-c2ccccc2)c2nc(-c3ccccc3O)c3cc(OC)c(OC)cc3c12	-17	102	97	-51
CCOC(=O)C1CCCN(Cc2cc(=O)n3ccsc3n2)C1 (configuration not stated)	35	102	108	0
CCOC(=O)c1c[nH]c2cc3c(cc2c1=O)OCCO3	5	105	103	-14
COc1ccc(Cc2nc3ccc(S(=O)(=O)N4CCOCC4)cc3[nH]2)cc1	1	100	93	1
c1ccc(Oc2ncnc3sccc23)cc1	-9	120	123	-5
CN(C)C(=O)CN(c1ccccc1)S(=O)(=O)c1ccccc1	14	107	101	-7
Cc1nnc(Sc2nc(Nc3ccccc3)nc(Nc3ccccc3)n2)s1	-2	105	109	-20
ON=Cc1cccn1-c1ccccc1	8	99	104	3
Cc1scc(-c2ccccc2)[n+]1C	8	102	105	x
O=C(NO)C12CCC(CC1)C2	-11	99	107	x
CC(C)CCNC(=O)C1CCN(C(=O)c2cc3sccc3n2Cc2ccc(F)cc2)CC1	0	104	96	-5
COc1ccc(NC(=O)Cc2c(F)c(F)c(F)c(F)c2F)cc1OC	-6	104	109	x
Cc1cc(C=Nc2ccc(O)c(C(=O)O)c2)c(C)n1-c1ccc(N(C)C)cc1	x	104	109	-6
COc1ccccc1OCCN1CCCCC1	x	102	105	-2

# Quoted at random: seven entries already listed.
smiles	MbtI inh	PV pol inh	PV pol inh intensity	MenB inh
Fc1ccc(CNCc2ccccc2)cc1	1	103	100	-57
Cc1cc2c(cc1S(=O)(=O)N1CCc3ccccc3C1)n(C)c(=O)c(=O)n2C	71	102	102	-28
CCOC(=O)c1c[nH]c2cc3c(cc2c1=O)OCCO3	5	105	103	-14
COc1ccccc1OCCN1CCCCC1	x	102	105	-2
COc1ccc(NC(=O)Cc2c(F)c(F)c(F)c(F)c2F)cc1OC	-6	104	109	x
O=C(NCCc1cn2ccccc2n1)c1cccs1	4	105	106	-6
ON=Cc1cccn1-c1ccccc1	8	99	104	3

# Additional records
smiles	MbtI inh	PV pol inh	PV pol inh intensity	MenB inh
O=C(c1ccccc1)N1CC(=O)N(OCc2ccccc2)C1c1cccs1 (configuration not stated)	x	100	97	1
Cn1c(Cc2nc(-c3cnccn3)no2)nnc1SCc1ccc(Cl)cc1	-7	102	108	9
COc1ccc(C(=O)Nc2cccc(-c3nc4ccccc4o3)c2)cc1	54	100	98	-25
O=C(Cc1ccccc1)Nc1ccc2oc(-c3ccncc3)nc2c1	x	95	85	-12
O=C1CC(c2ccccc2)NC(c2ccccc2)C1 (configuration not stated)	-6	101	101	-30
O=C(COc1cccc(C(F)(F)F)c1)NCCc1ccccn1	2	99	105	-16
COc1ccc(N2CCN(c3c(C(=O)c4ccc(C)cc4)cnc4cc(OC)c(OC)cc34)CC2)cc1	-3	104	108	-29
CC(C)c1cc(=O)[nH]c(SCCOc2ccccc2Cl)n1	73	103	100	-75
CCC(C)c1ccc(NC(=O)CC(C)C)cc1 (configuration not stated)	-18	101	103	-21
O=C(CN1CCN(Cc2ccc(Cl)cc2)CC1)N1CCc2ccccc21	-4	105	109	2
CC1(C)CC(=O)C(C=NC2CC(C)(C)NC(C)(C)C2)=C(O)C1	0	102	101	-56
CCn1c(SCC(=O)OCC(=O)Nc2ccc(C)c(F)c2)nnc1-c1cccs1	-22	104	110	-18
O=C(COC(=O)C1CCN(C(=O)Nc2ccccc2)CC1)c1c[nH]c2ccccc12	-6	100	102	-3
Cc1nn(Cc2ccccc2Cl)c(C)c1NC(=O)COCc1cc(-c2ccc3c(c2)OCO3)on1	4	100	99	-9
Cc1ccc(-c2cnnc(-c3ccc(Cl)cc3)n2)cc1	-20	103	100	-21
S=c1ccc2nnc(-c3ccccc3)n2[nH]1	93	101	110	-8
CC(=O)O[C@@H]1[C@H]2OC(C)(C)O[C@H]2O[C@@H]1C(O)CO (some centres not stated)	-9	107	106	-15
C/C(=N\OCC(=O)NC1CCCc2ccccc21)c1cc2ccccc2o1 (configuration not stated)	6	96	100	-26
CNC(=O)c1c(O)c2ccccc2[nH]c1=O	x	112	117	15
